# ERK AVP inh = blocks ERK signaling stimulated by vasopressin. HEK293-V1b, vasopressin-stimulated pERK AlphaScreen. hit rate 0.99% among 72,000. Potency, µM (titrated, usually from 57.5 µM), inactives show at the highest dose activity, negative = inhibition, actives largely listed as inhibitors; note: potency is the fitted concentration of half-maximal effect; % is set by controls: 0 for no effect and ±100 for the full control effect; nearly all actives have a fitted effect of over 55% in size
#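 Phosphorylated ERK1/2 detected via AlphaScreen bead proximity in lysates of V1b-expressing HEK293 cells given 25 nM vasopressin for 5 min after 30 min compound exposure (37 °C). AC50 from Hill equation; basal DMSO 0%, vasopressin 100%.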
# Pol III holo inh = DNA polymerase III holoenzyme inhibition. Potency, µM (series often up to 57.1 µM), for inactives: top-dose activity change, negative = inhibition. hit rate 0.25% among 71,000. AID 603. reconstituted DNA polymerase III holoenzyme replication, biochemical; note: potency is the fitted concentration of half-maximal effect; % is set by controls: 0 for no effect and ±100 for the full control effect
#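 Reconstituted *E. coli* holoenzyme (0.35 nM Pol III, 1 nM beta, 154 nM SSB, 2 nM primase) was preincubated with compound for 15 min at RT. Synthesis on 1.4 nM ssM13Gori ran 35 min, then was stopped with PicoGreen/EDTA and read as dsDNA fluorescence.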
# Luciferase inh = inhibitors of firefly luciferase. P08659. purified firefly luciferase, luminescence, 8 min. Potency, µM (top dose mostly 57.1 µM), for inactives: at the top dose activity change, negative = inhibition, usual class: inhibitors. hit rate 2.2% among 72,000. AID 411; note: potency is the fitted concentration of half-maximal effect; % is set by controls: 0 for no effect and ±100 for the full control effect; nearly all actives have a fitted effect of over 40% in size
# Target sequence (P08659 whole entry, looked up): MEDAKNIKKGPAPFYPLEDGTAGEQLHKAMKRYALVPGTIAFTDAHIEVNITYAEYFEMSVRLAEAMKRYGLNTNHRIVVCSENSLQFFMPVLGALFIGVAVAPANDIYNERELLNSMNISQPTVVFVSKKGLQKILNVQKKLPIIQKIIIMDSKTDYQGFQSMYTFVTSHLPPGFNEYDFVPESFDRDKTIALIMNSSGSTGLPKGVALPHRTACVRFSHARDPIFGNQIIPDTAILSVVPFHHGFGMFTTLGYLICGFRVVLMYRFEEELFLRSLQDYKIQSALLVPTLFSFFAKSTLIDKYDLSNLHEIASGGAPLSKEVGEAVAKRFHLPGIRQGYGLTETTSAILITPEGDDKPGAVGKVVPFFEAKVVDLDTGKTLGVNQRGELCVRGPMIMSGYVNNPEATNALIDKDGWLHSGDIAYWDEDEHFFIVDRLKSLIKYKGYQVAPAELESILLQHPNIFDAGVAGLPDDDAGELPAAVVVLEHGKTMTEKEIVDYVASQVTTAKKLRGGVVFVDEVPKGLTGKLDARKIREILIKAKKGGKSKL
#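 qHTS concentration-response profiling: light output of P. pyralis luciferase with luciferin and 10 uM ATP, imidazole buffer pH 7.2. Read by luminescence after 8-min room-temperature incubation.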
# GFP derepression = epigenetic GFP locus derepression in mouse cells; mouse C127i GFP locus derepression, cytometry, 30 h; Potency, µM (highest dose often 46.1 µM), inactives show at the top dose GFP derepression (activation); hit rate 0.09% among 68,000; note: % of control where 0% means no effect
#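 Derepression screen: silenced CMV-GFP reporter in murine C127i cells, 30 h compound incubation at 37 C, washed cells imaged by laser-scanning cytometer to enumerate GFP-expressing objects of 20 to 120 um.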
# Hsp90 Hop PPI = changes Hsp90-Hop TPR2A binding signal, up or down; AlphaScreen TPR2A-His6 binding biotin-Hsp90 C-terminal peptide; Potency, µM (series often up to 57 µM), for inactives: at the top dose activity change, negative = inhibition; hit rate 0.44% among 71,000; AID 595; active = well fitted curve in either direction with a large enough effect; inconclusive = small, poorly fitted or top-dose-only effect, or another doubt; note: potency is the fitted concentration of half-maximal effect; % is set by controls: 0 for no effect and ±100 for the full control effect; many of its hits are not listed in these tables
# CRE-bla Fsk = alters forskolin-stimulated CRE reporter signaling in CHO cells; CHO CRE-bla reporter (cAMP response element driving beta-lactamase), forskolin EC10, beta-lactamase ratio; Potency, µM (doses to about 38.2 µM), inactives show at the highest dose activity change, negative = inhibition, usual class: activators; hit rate 2.5% among 71,000; active = well fitted activation curve with a large enough effect in the signal ratio, with a control signal flat, not every such curve was filed as active; inconclusive = small, poorly fitted or top-dose-only effect, or effect the other way, or a change in a side signal; the % refers to the signal ratio; note: potency is the fitted concentration of half-maximal effect; % of control where 0% means no effect
#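 CHO CRE-bla cells, overnight plating in Opti-MEM with 0.5% dialyzed FBS; cpd titration + EC10 NKH 477, 3 h 37 °C; CCF4 2 h RT; ex 405/em 460 vs 530 ratio → %Activity, AC50.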
# HBB splice mod = alters splicing of the hemoglobin beta chain. HBB splicing reporter cell assay, activation; EGFP reporter with mutant IVS2-654 intron; response scale: normalised to 500 nM splice-correcting PNA. Potency, µM (titrated, usually from 46.1 µM), inactives show at the top dose activation, most hits filed as activators. hit rate 0.06% among 65,000. AID 925; note: potency is the fitted concentration of half-maximal effect; 0% is about no effect
#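 HeLa cells stably expressing EGFP interrupted by mutant beta-globin intron 2 (IVS2-654), 500/well in 2% FCS. Treated with compound for 2 days at 37C. Splicing correction scored as total well GFP intensity (488 nm excitation, 500-520 nm emission); 500 nM antisense PNA served as control.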
# 15-hLO inh = blocks human 15-lipoxygenase activity; purified 15hLO-1, xylenol orange hydroperoxide absorbance; Potency, µM (titrated, usually from 57.1 µM), for inactives: top-dose activity change, negative = inhibition, actives largely listed as inhibitors; hit rate 1.4% among 74,000; AID 887; note: potency is the fitted concentration of half-maximal effect; % is set by controls: 0 for no effect and ±100 for the full control effect; nearly all actives have a fitted effect of over 55% in size
#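 Readout: Fe(III)-xylenol orange absorbance, 573-to-405 nm ratio as reaction progress. Enzyme 40 nM purified human 15hLO-1, substrate 50 uM arachidonic acid, 6 min RT after 15 min compound preincubation; Hepes pH 7.5 buffer with Triton X-100.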
# Ub-GFP proteasome = ubiquitin-GFP accumulation via proteasome inhibition; Ubiquitin-GFP reporter cells, proteasome inhibition, GFP fluorescence; response scale: untreated = 0%, 10 µM MG-132 = 100%; 67,000 tested, under 10 active; Potency, µM (doses to about 45.9 µM), for inactives: at the highest dose activation (GFP accumulation), usual class: activators; active = well fitted activation curve with a large enough effect, not every such curve was filed as active; inconclusive = small, poorly fitted or top-dose-only effect, or another doubt; inactive = no such curve, though single readings can be large or run the other way; note: potency is the fitted concentration of half-maximal effect
#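 Reporter cells (U2OS, ubiquitin-G76V-GFP fusion) are plated overnight, then treated 4 hr at 37 °C with compound titrations from 46 uM down to 2.9 nM. Activity is scaled against untreated cells and 10 uM MG-132.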
# Tau fil binding = binds recombinant human tau filaments. P10636. recombinant tau filaments, thioflavin S fluorescence, 15 h; filaments grown with octadecylsulfate alongside compound. Potency, µM (highest dose often 57.1 µM), inactives show top-dose activity change, negative = inhibition. hit rate 2% among 71,000. AID 596;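 note: potency is the fitted concentration of half-maximal effect; % is set by controls: 0 for no effect and ±100 for the full control effect; actives lower thioflavin S fluorescence by blocking filaments or displacing dye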
#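 ThS-based fibril read: tau 1 uM final, inducer ODS 30 uM final, 37 C for 15 h, ex 450/em 510 nm.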
# * marks the source's active call; other numbers are inactive results; ? = inconclusive; . = no result given; [ ] = remark or other dose. Unless noted, calls come from the whole dose curve; as a rule, active = well fitted curve in the direction sought with a large enough effect; inconclusive = small, poorly fitted or top-dose-only effect, or another doubt; inactive = no such curve, though single readings can be large; an effect the other way counts as inactive or inconclusive. Only part of the results is shown; count on the stated rates, not on these rows.
SMILES,ERK AVP inh,Pol III holo inh,Luciferase inh,GFP derepression,Hsp90 Hop PPI,CRE-bla Fsk,HBB splice mod,15-hLO inh,Ub-GFP proteasome,Tau fil binding
COc1cc(NC(=O)CC(C)C)ccc1NC(=O)c1ccco1,-38%,-9%[11.4 µM],16µM*,-2%,-7%[11 µM],?,0.5%[0.0738 µM],4%[11.4 µM],-17%[9.17 µM],4%[11.4 µM]
O=C(Nc1ccc(-c2nnc(-c3ccccc3)o2)cc1)c1ccc(Br)o1,?,-9%,-3%,-3%,-5%,0%,-1.7%,-14%,2%,283%
Cc1cc(-c2nsc(=O)o2)c(S(C)(=O)=O)s1,3%,3%,-2%,14%,-1%,5%,0.3%,?,3%,-2%
CCn1c(SCC(=O)Nc2nccs2)nnc1-c1cc2cccc(OC)c2o1,5%,-5%,0%,0%,1%,3%,.,-5%,2%,21%
COCCN(CCOC)C(=O)c1c[nH]c2ccc(S(=O)(=O)N(C)c3ccc(F)cc3)cc2c1=O,15%,5%,1%,-3%,-2%,-11%,-0.2%,10%,-3%,19%
Cc1ccccc1N1C(=O)C(Cl)=C(N2CCN(c3ccccc3)CC2)C1=O,?,6%,2%,6%,-28%,?,0.9%,-7%,3%,-26%
CCCc1cc(=O)[nH]c(SCC(=O)c2ccc(S(=O)(=O)N3CCCC3)cc2)n1,?,-6%,1%,2%,-5%,6%,-0.1%,?,-13%,-3%
COC(=O)c1ccc(COC(=O)c2c(C)nn(Cc3ccccc3Cl)c2Cl)o1,8%,-6%,0%,1%,?,?,-0.3%[57.5 µM],0%,0%,12%
CCN(CC)C(=O)CSc1nnc2sc3ccccc3n12,-12%,-5%,1%,3%,-2%,-3%,-1.7%,-6%,4%,4%
CCOc1ccc(-c2cc(C(=O)O)c3ccccc3n2)c(OCC)c1,1%,0%,-22%,2%,-4%,7%,-5.2%,-18%,6%,-2%
COc1cccc(CNC(=O)c2cc3oc4ccccc4c3n2C)c1OC,?,0%,0%,0%,2%,?,-0.2%,-13%,5%,43%
CS(=O)(=O)N1CCN(c2nnc(-c3ccccc3)c3ccccc23)CC1,-1%,8%,-1%,0%,-1%,?,-0.4%,6%,0%,12%
CCOc1cc(C2c3c(n[nH]c3C)C(=O)N2c2ccc(C)cc2)ccc1O (stereo not drawn),-23%,-1%,0%,-2%,-2%,-17%,-1.6%[57.5 µM],2%,1%,5%
COCCCNC(=O)c1ccccc1NS(C)(=O)=O,-13%,1%,2%,-3%,-1%,3%,-0.1%,2%,-7%,2%
Cc1ccccc1-n1c(=O)cc(N2CC(C)OC(C)C2)[nH]c1=O (stereo not drawn),0%,2%,2%,0%,-6%,?,-0.7%,5%,-4%,-2%
COc1cc2c(cc1OC)CN(C(=O)c1ccc(OC)c(S(=O)(=O)N3CCOCC3)c1)CC2,-3%,-4%,-1%,0%,-1%,?,-1.9%,4%,-2%,11%
Cc1cc2cc(CCNC(=O)CC(C)C)c(=O)[nH]c2cc1C,.,0%,-8%,.,-2%,13µM*,-0.5%,4%,-2%,-4%
COc1ccccc1-c1cn[nH]c(=S)n1,-19%,-5%,1%,0%,-6%,?,-1.0%,?,-3%,-7%
Cn1c(=O)n(CC(=O)N2CCN(c3nnc(-c4ccccc4)c4ccccc34)CC2)c2ccccc21,-6%,-8%,7%,2%,-7%,?,2.4%,4%,-3%,40%
COc1ccc(C2CC(=O)c3c(C)nc(N4CCN(c5ccccc5)CC4)nc3C2)cc1 (stereo not drawn),-4%,3%,1%,0%,-4%,1%,1.2%[57.5 µM],-6%,-5%,-4%
O=C(O)c1cccc(S(=O)(=O)Nc2ccc3c(c2)OCO3)c1,-15%,-2%,-2%,-2%,-4%,-3%,3.7%,-4%,-3%,-9%
O=C(Nc1ccccc1)c1ccc(NCc2cccnc2)c(S(=O)(=O)N2CCOCC2)c1,-21%,-1%,2%,-3%,-3%,-11%,-0.9%,6%,-1%,0%
Cc1ccc(C2(c3ccc(C)cc3)NC(=O)N(Cc3c(C)noc3C)C2=O)cc1,10%,3%,11%,-1%,-2%,24%,-0.9%,-19%,5%,-10%
COC(=O)Oc1nsnc1N1CCOCC1,-5%,3%,0%,-1%,1%,12%,.,?,-1%,7%
COc1ccc(Cc2nnc(NC(=O)c3cccs3)s2)cc1,-14%,0%,-5%,0%,-3%,?,0.3%,2%,-16%,120%
O=C(CSc1nnc(-c2ccco2)o1)NC1CCCCC1,9%,5%[11.4 µM],1%,0%,-3%[11 µM],?,-1.5%[0.0738 µM],6%[11.4 µM],-1%[9.17 µM],15%[11.4 µM]
Cn1cccc1Cc1nnc(SCC(=O)Nc2ccccc2F)n1CCc1ccccc1,?,-1%,-1%,-3%,-9%,-16%,-0.7%,16µM*,15%,-2%
CCc1cc(C(=O)COc2ccccc2F)c(O)cc1O,?,-1%,0%,5%,-7%,-6%,-5.2%,13µM*,-3%,-18%
CCOC(=O)c1sc(=S)n(CC)c1N,7%,-2%,1%,-2%,-8%,?,0.3%[57.5 µM],13%,6%,-4%

# Some of the entries so far, with tabs:
SMILES	ERK AVP inh	Pol III holo inh	Luciferase inh	GFP derepression	Hsp90 Hop PPI	CRE-bla Fsk	HBB splice mod	15-hLO inh	Ub-GFP proteasome	Tau fil binding
COCCCNC(=O)c1ccccc1NS(C)(=O)=O	-13%	1%	2%	-3%	-1%	3%	-0.1%	2%	-7%	2%
Cc1ccccc1-n1c(=O)cc(N2CC(C)OC(C)C2)[nH]c1=O (stereo not drawn)	0%	2%	2%	0%	-6%	?	-0.7%	5%	-4%	-2%
COc1cc2c(cc1OC)CN(C(=O)c1ccc(OC)c(S(=O)(=O)N3CCOCC3)c1)CC2	-3%	-4%	-1%	0%	-1%	?	-1.9%	4%	-2%	11%
Cc1cc2cc(CCNC(=O)CC(C)C)c(=O)[nH]c2cc1C	.	0%	-8%	.	-2%	13µM*	-0.5%	4%	-2%	-4%
COc1ccccc1-c1cn[nH]c(=S)n1	-19%	-5%	1%	0%	-6%	?	-1.0%	?	-3%	-7%
Cn1c(=O)n(CC(=O)N2CCN(c3nnc(-c4ccccc4)c4ccccc34)CC2)c2ccccc21	-6%	-8%	7%	2%	-7%	?	2.4%	4%	-3%	40%
COc1ccc(C2CC(=O)c3c(C)nc(N4CCN(c5ccccc5)CC4)nc3C2)cc1 (stereo not drawn)	-4%	3%	1%	0%	-4%	1%	1.2%[57.5 µM]	-6%	-5%	-4%
O=C(O)c1cccc(S(=O)(=O)Nc2ccc3c(c2)OCO3)c1	-15%	-2%	-2%	-2%	-4%	-3%	3.7%	-4%	-3%	-9%
O=C(Nc1ccccc1)c1ccc(NCc2cccnc2)c(S(=O)(=O)N2CCOCC2)c1	-21%	-1%	2%	-3%	-3%	-11%	-0.9%	6%	-1%	0%
Cc1ccc(C2(c3ccc(C)cc3)NC(=O)N(Cc3c(C)noc3C)C2=O)cc1	10%	3%	11%	-1%	-2%	24%	-0.9%	-19%	5%	-10%
COC(=O)Oc1nsnc1N1CCOCC1	-5%	3%	0%	-1%	1%	12%	.	?	-1%	7%
COc1ccc(Cc2nnc(NC(=O)c3cccs3)s2)cc1	-14%	0%	-5%	0%	-3%	?	0.3%	2%	-16%	120%
O=C(CSc1nnc(-c2ccco2)o1)NC1CCCCC1	9%	5%[11.4 µM]	1%	0%	-3%[11 µM]	?	-1.5%[0.0738 µM]	6%[11.4 µM]	-1%[9.17 µM]	15%[11.4 µM]

# Bioassay records from PubChem BioAssay.
